# Source: PubChem BioAssay
# GLA inh pH 4.5: alpha-galactosidase A (human) inhibition, pH 4.5. P06280. 230,000 tested, under 10 active. activity change, negative = inhibition, % at 105 µM. purified enzyme, 4-MU-alpha-Gal fluorescence, pH 4.5; inconclusive = small, poorly fitted or top-dose-only inhibition, or a rising curve; inactive = flat fitted curve, though single readings scatter; no compound was filed as active;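 further: 0% = full activity with enzyme and -100% = basal without enzyme; dose as in the result columns while the protocol names 77 µM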
# Target sequence (P06280 whole entry, looked up): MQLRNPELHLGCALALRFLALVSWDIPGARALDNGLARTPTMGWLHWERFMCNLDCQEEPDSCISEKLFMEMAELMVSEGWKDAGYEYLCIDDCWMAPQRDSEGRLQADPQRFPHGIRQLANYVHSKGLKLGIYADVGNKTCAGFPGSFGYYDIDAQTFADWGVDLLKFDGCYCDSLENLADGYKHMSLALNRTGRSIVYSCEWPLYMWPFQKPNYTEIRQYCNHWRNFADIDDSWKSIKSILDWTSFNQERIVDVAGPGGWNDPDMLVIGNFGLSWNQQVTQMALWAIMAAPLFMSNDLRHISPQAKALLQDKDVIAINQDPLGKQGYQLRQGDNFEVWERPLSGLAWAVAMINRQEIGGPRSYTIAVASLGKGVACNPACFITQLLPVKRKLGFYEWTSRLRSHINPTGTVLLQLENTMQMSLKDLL
# Rango dissoc inh: inhibitors of RanGTP-induced Rango-importin beta complex dissociation; Potency, µM (titrated, usually from 46.1 µM), for the others: top-dose activity change, negative = inhibition; 0.071% of 340,000 active; Biochemical FRET Rango-importin beta, RanGTP-induced dissociation; AID 540253; O95149+P62826; active means falling FRET ratio curve, often poorly fitted, with flat reads before Ran was added; inconclusive means other falling curves, or compound fluorescence or quenching; inactive means flat or rising ratio curve;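 further: potency means the concentration at half of the fitted maximal effect; % of control where 0% means no effect; nearly all actives have a fitted effect of over 45% in size; -100% = wells without RanGTP and RCC1; the record marks most hits as doubtful in a second field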
#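 Rango FRET biosensor (snurportin-1 IBB flanked by N-terminal EYFP and C-terminal CFP10) at 0.1 uM, with 0.25 uM importin beta in PBS, 1mM DTT, 0.02% Tween-20, 0.1% BSA. 0.6 uM Ran, 2mM GTP and 0.2 uM RCC1 were then added for 45 min at room temperature. Inhibition read as loss of FRET rise.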
# Rango-impB inh: Rango-importin beta binding inhibition. Rango CFP/YFP FRET sensor + importin beta, 45 min. Potency, µM (top dose mostly 92.2 µM), without a hit: top-dose inhibition of complex formation. 0.031% of 340,000 active. AID 540263; active = rising FRET ratio curve, often small or poorly fitted; inconclusive = mostly compound fluorescence or quenching in the first reads; inactive = flat curves in all reads;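 further: potency means the concentration at half of the fitted maximal effect; 0% = DMSO wells and 100% = buffer wells lacking importin beta; nearly all actives have a fitted effect of over 15% in size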
#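 FRET biosensor (snurportin 1 IBB flanked by EYFP and cerulean), 50 nM, with compound 5 min, then 0.125 microM importin beta in PBS, 1 mM DTT, 0.02% Tween-20, 0.1% BSA. CFP/YFP ratio read after 45 min at room temperature; pre-read flags interference.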
# miR-21 reporter: raises the signal of a miR-21 reporter; HeLa miR-21 FLuc reporter, luciferase, 48 h; Potency, µM (top dose mostly 38.3 µM), inactives show top-dose reporter change, positive = more light; 340,000 tested, under 10 active; AID 2288; active = well fitted rising curve with a large enough effect; inconclusive = small, poorly fitted or top-dose-only effect; inactive = no such curve, though single readings can be large or run the other way;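 further: % of control where 0% means no effect; miR-21 action dims this reporter so a rising signal means less miR-21 action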
#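 HeLa cells endogenously expressing miR-21, stably carrying CMV-driven firefly luciferase with a downstream miR-21 binding site, 2000 cells/well. Titrations up to approximately 40 uM, 48 hours; luciferase luminescence read.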
# * = called active by the depositor; ? = inconclusive; · = not tested or not shown; & = joins results of further samples. A portion of the library; rates above refer to the full screens.
SMILES,GLA inh pH 4.5,Rango dissoc inh,Rango-impB inh,miR-21 reporter
O=c1[nH]c2cc3c(cc2cc1CN(Cc1nnnn1CC1CCCO1)C1CCCC1)OCO3 (centres undefined),0,-19%,?,0%
O=C(CNC(=O)C(c1ccccc1)c1ccccc1)N/N=C/c1ccc(O)cc1O,?,-22%,-4.6%,27%
CN(C(=O)CCNC(=O)Cn1cnc2ccccc2c1=O)c1ccccc1F,·,0%,0.6%,0%&3%
O=S(=O)(c1ccc2nc(-c3ccco3)c(-c3ccco3)nc2c1)N1CCOCC1,-14,?,?,8%
Cc1cc(NC(=O)CSc2nc(-c3ccc(Cl)cc3)cs2)no1,0,9%,0.3%,-7%
CCC1CCCCN1C(=S)NC(=O)c1cccc([N+](=O)[O-])c1 (centres undefined),·,-6%,1.2%,12%
O=[N+]([O-])c1cccc(NC(=S)N2CCOCC2)c1,4,1%,-0.2%,-6%
O=C(Nc1ccccc1N1CCOCC1)c1ccco1,·,38%,-0.8%,-2%
CCN1C(=O)NC(c2cccnc2)C(C(=O)OC)=C1C (centres undefined),-4,-5%,?,0%
O=C(c1ccco1)N1CCN(C(=O)C2c3ccccc3Oc3ccccc32)CC1,-2,-4%,-1.6%,-2%
CCCCCCn1c(SCC(=O)OC)nc2c1c(=O)[nH]c(=O)n2C,6,2%,-1.4%,0%
COCCCNC(=S)N(CCCO)Cc1cc2cc3c(cc2[nH]c1=O)OCCO3,·,0%,-0.2%,-2%
O=C(NC1CCCC1)C(c1ccccc1F)N(C(=O)c1csnn1)c1ccccc1 (centres undefined),·,-1%,13%,2%
O=C(CN1CCN(c2ccc(F)cc2)CC1)Nc1cc(C(F)(F)F)ccc1Cl,-10,-6%,?,-2%
CCn1cc(C(=O)OCC(=O)NCc2ccc3c(c2)OCO3)c(=O)c2ccc(C)nc21,3,-8%,0.1%,5%
O=C(O)C1C2C=CC(C3CC23)C1C(=O)N1CCc2ccccc21 (centres undefined),2,-2%,-2.9%,-2%
CC(=O)Nc1nc(-c2ccccc2)cc(-c2ccco2)c1C#N,·,-11%,?,·
COc1cc(-c2nc3ccc4ccccc4c3c3c2CCC3)ccc1O,1,-3%,-4.9%,-7%
CC1=CC(C)=Nc2ccccc2N1,-5,-19%,4.8%,-44%
CC(C)(C)n1nc2c(c1NC(=O)c1cc3ccccc3o1)CSC2,-1,2%,-2.7%,5%
COc1ccc(-c2nc(CN3CCCCC3CCc3ccccn3)c(C)o2)cc1 (centres undefined),-9,16%,0.9%,-8%
Cn1cnc([N+](=O)[O-])c1SCC(=O)NN,-15,-1%,-2.7%,0%
CCOc1ccc(-n2c(=S)sc3c(=O)[nH]c(SCC(=O)C(C)(C)C)nc32)cc1,-16,2%,-0.7%,7%
COc1ccc(CN2CCCC(CO)(Cc3ccc(F)cc3)C2)cc1C (centres undefined),·,0%,1.4%,0%
COc1ccccc1NC(=O)C1CCN(C(=O)c2ccc(C(C)(C)C)cc2)CC1,·,2%,3.3%,-11%

# 7 compounds from above, sorted by count of non-hydrogen atoms, smallest number first.
SMILES,GLA inh pH 4.5,Rango dissoc inh,Rango-impB inh,miR-21 reporter
CCN1C(=O)NC(c2cccnc2)C(C(=O)OC)=C1C (centres undefined),-4,-5%,?,0%
Cc1cc(NC(=O)CSc2nc(-c3ccc(Cl)cc3)cs2)no1,0,9%,0.3%,-7%
CC(C)(C)n1nc2c(c1NC(=O)c1cc3ccccc3o1)CSC2,-1,2%,-2.7%,5%
COc1ccc(CN2CCCC(CO)(Cc3ccc(F)cc3)C2)cc1C (centres undefined),·,0%,1.4%,0%
CN(C(=O)CCNC(=O)Cn1cnc2ccccc2c1=O)c1ccccc1F,·,0%,0.6%,0%&3%
O=C(c1ccco1)N1CCN(C(=O)C2c3ccccc3Oc3ccccc32)CC1,-2,-4%,-1.6%,-2%
O=C(CNC(=O)C(c1ccccc1)c1ccccc1)N/N=C/c1ccc(O)cc1O,?,-22%,-4.6%,27%

# The list continues.
SMILES,GLA inh pH 4.5,Rango dissoc inh,Rango-impB inh,miR-21 reporter
O=c1nc(-c2ccccc2)n(-c2ccc(Cl)cc2)[nH]1,-1,2%,?,-6%
O=C(c1ccc(F)cc1F)N1CCN(c2ncccn2)CC1,-1,2%,-1.5%,0%
OCCSc1nc2ccccc2n1CCOc1ccccc1,4,-17%,4.6%,-27%
COc1cc(C2NC(=O)NC(c3ccccc3)=C2C(C)=O)ccc1OCC(=O)O (centres undefined),-6,1%,1.3%,-4%
COc1ccc(C2/C(=C(/O)c3ccc(F)cc3)C(=O)C(=O)N2CCCN(C)C)cc1 (centres undefined),·,2%,-0.1%,·
Cn1c(SCC(=O)NCc2cccs2)nnc1-c1ccco1,-1,13%,-0.8%,-2%
COc1ccc(NC(=O)CN(C)C(=O)c2ccc(-c3ccccc3Cl)o2)cc1,·,0%,-1.4%,·
O=C(Nc1nc(-c2ccccc2)cs1)C1CCCO1 (centres undefined),0,15%,-6.3%,-31%
Cc1cc(Nc2ccc3c(c2)OCCO3)n2ncnc2n1,0,12%,2.2%,-9%
Cc1ccc(S(=O)(=O)N2CCN(C(=S)NCCc3ccccc3)CC2)cc1,-23,21%,-5.3%,6%
COC(=O)[C@H](Cc1ccccc1)NC(=O)NCc1ccccc1,1,-14%,-3.7%,-2%
CCCN(Cc1ccccc1)C(=S)Nc1ccc(F)cc1,4,0%,0.4%,1%
CCOc1ccccc1NC(=O)Nc1cc(C(=O)O)ccc1C,5,0%,-1.5%,-2%
O=C(NCc1nnc(SCc2ccc(C(F)(F)F)cc2)n1-c1ccccc1)C12CC3CC(CC(C3)C1)C2,4,-6%,-5.4%,?
CC1(c2nnc(-c3cccc(Cl)c3)o2)CC(c2ccc(C#N)cc2)=NO1 (centres undefined),·,3%,-0.7%,·
CC(=O)Nc1ccc(S(=O)(=O)NCC(=O)NNC(=O)COc2c(C)cccc2C)cc1,·,-4%,0.0%,·
Cc1sc2nc(Cc3ccccc3)[nH]c(=O)c2c1-c1ccccc1,8,-14%,-1.3%,-1%
O=C(NCCc1ccccc1)c1cc(S(=O)(=O)N2CCCC2)ccc1F,·,5%,2.3%,-17%
Cc1ccc(NC2=C/C(=N\S(=O)(=O)c3cccs3)c3ccccc3C2=O)c(C)c1,1,-21%,-1.4%,?
O=c1[nH]c(CN2CCN(Cc3ccc4c(c3)OCO4)CC2)nc2sc3c(c12)CCC3,-10,·,·,0%
CC1CC(=O)C2=C(C1)Nc1ccccc1N(C(=O)COc1ccccc1)C2c1ccco1 (centres undefined),0,16%,?,-3%
COc1ccc(C(=O)SC2=NCCS2)cc1OC,18,-8%,-0.2%,-6%
COc1ccc(C(=O)NCC(=O)N/N=C/c2ccco2)cc1OC,·,-6%,-2.5%,4%
COCc1nnc(NC(=O)CCCOc2ccccc2OC)s1,0,-5%,4.0%,-2%
Cc1ccccc1N1CCN(Cc2cc3c(cc2[N+](=O)[O-])OCO3)CC1,·,?,-0.3%,0%
SMILES,GLA inh pH 4.5,Rango dissoc inh,Rango-impB inh,miR-21 reporter
Nc1sc(-c2ccccc2)cc1-c1n[nH]c(=S)n1C1CCCCC1,-3,11%,-3.1%,26%
COc1ccc(C2CC(c3ccccc3)=NN2C(=O)CSc2ncccn2)cc1 (centres undefined),-19,-1%,-2.9%,-4%
COc1ccc(/C(C)=N/Nc2ccc(C(=O)O)cc2)cc1OC,7,-5%,0.6%,-35%
CCCS(=O)(=O)N1CCCC(C(=O)Oc2ccccc2Cl)C1 (centres undefined),·,-2%,-2.4%,-1%
CN1CCN(C(=O)CCC(=O)NCc2ccc(F)cc2)CC1,·,11%,-0.7%,-2%
C/C(=N/NS(=O)(=O)c1ccc(C(C)(C)C)cc1)c1ccc2c(c1)OCO2,·,-4%,-0.6%,1%
O=C(O)C1(C(=O)O)CCCC1,·,1%,0.0%,·
COc1ccc(C2=NS(=O)(=O)N(C)C(C(=O)N(C)Cc3ccccc3)=C2)cc1,·,25%,0.8%,-1%
O=C(NC(=S)Nc1ccccc1Cl)c1cncc(C#Cc2ccccc2)c1,-6,-1%,-2.8%,-7%
COc1ccc(CN(CCN2CCOCC2)C(=O)c2c(F)cccc2F)cc1OC,-5,11%,1.3%,-9%
c1ccc(OCCN2CCOCC2)cc1,·,-17%,-1.7%,-3%
COc1ccc(C)cc1NC(=O)C1C2C=CC(C2)C1C(=O)O (centres undefined),7,0%,-8.4%,-3%
CCC(C(=O)N1CCOCC1)n1nc(C)c2sc3ccccc3c2c1=O (centres undefined),·,1%,3.7%,-2%
Cc1cc(C)c2c(C(C)(C)C)nn(-c3ccccc3)c2n1,·,7%,1.5%,-10%
CCN(CC)c1ccc(C2C3CCCCC3(O)CCN2C(=O)c2cccs2)cc1 (centres undefined),3,2%,1.3%,-13%
Cc1ccccc1NC(=O)COc1nsnc1N1CCOCC1,-4,-5%,-2.3%,-3%
CCCCOCCCNCc1cccn1CCN1CCOCC1,·,3%,3.0%,6%
O=c1cc(CSc2nnc(C3CC3)n2Cc2ccccc2)nc2sccn12,-2,0%,3.7%,3%
CCOC(=O)c1ccc(CNS(=O)(=O)c2c(C)ccc3nsnc23)o1,1,-4%,?,-3%
CCCC1=C(C(=O)OCC)C(c2ccco2)n2ncnc2N1 (centres undefined),-2,8%,1.8%,16%
COc1ccc(-c2[nH]ncc2CN2CCC(OCc3ccccn3)CC2)c(F)c1,-4,2%,1.3%,4%
CCOc1ccccc1CN1CCN(Cc2nc3ccccc3s2)CC1CCO (centres undefined),3,5%,3.4%,0%
O=C1NC(=O)/C(=C/c2ccc(O)cc2)S1,1,-2%,-1.4%,-16%
NS(=O)(=O)c1cccc(NC(=O)CN2CCN(S(=O)(=O)c3ccc4c(c3)OCCO4)CC2)c1,·,28%,-0.6%,·
Cc1ccc(C(=O)CCNc2cccc(Br)c2)o1,6,3%,0.5%,-22%
SMILES,GLA inh pH 4.5,Rango dissoc inh,Rango-impB inh,miR-21 reporter
CCN1CCN(C(=O)c2ccc3c(c2)N(Cc2ccc(F)cc2)C(=O)c2ccccc2S3=O)CC1 (centres undefined),1,-14%,0.1%,-7%
CN(N)C(=S)NCc1ccccc1,-3,1%,0.1%,-3%
Cc1oc2c(CN(C)C)c(O)ccc2c(=O)c1-c1cscn1,-4,9%,-4.2%,-4%
COc1ccc(C(=O)O)cc1S(=O)(=O)N1CCN(Cc2ccc3c(c2)OCO3)CC1,·,0%,-1.8%,·
O=C(c1ccccc1)N1CCCCC(S(=O)(=O)c2ccc3ccccc3c2)C1=O (centres undefined),-7,13%,6.3%,-4%
O=C(CSc1ncnc2c1nnn2Cc1ccccc1)NC1CCCC1,-2,1%,-4.1%,0%
CC1CCN(Cc2nnnn2CCCC(=O)NCCc2cnn(C)c2)CC1,·,21%,-0.1%,-2%
N#C/C(=C/c1ccc(Oc2ccc([N+](=O)[O-])cn2)cc1)C(=O)N1CCOCC1,-1,-10%,2.5%,1%
Oc1ccc(Br)cc1/C=N/n1c(C2CCCCC2)n[nH]c1=S,·,15µM*,?,0%
CNC(=O)COC(=O)c1ccccc1Nc1ccccc1,10,-9%,1.0%,-25%
COc1cccc(Cn2c(=O)sc3ccccc3c2=O)c1,7,1%,-1.6%,-33%
CN(CCO)c1ccc(C=NNc2ccc([N+](=O)[O-])cc2S(=O)(=O)Nc2ccccc2C(=O)O)cc1,·,-16%,5.7%,·
Cc1ccc(CN2C(=O)CCC2C(=O)NCCN2CCN(c3cccc(Cl)c3)CC2)cc1 (centres undefined),-6,1%,-0.5%,-5%
O=C(Nc1cccnc1)C1=NN(C2CCS(=O)(=O)C2)C(=O)CC1 (centres undefined),-4,-6%,-0.1%,6%
CCOC(=O)c1sc2nc[nH]c(=O)c2c1C,-1,0%,-0.3%,-10%
Cc1cccc(N=C2C(=O)Nc3c(Cl)cccc32)c1,·,9%,-1.0%,-7%
O=C(NCc1ccco1)C1Cc2cc(Cl)ccc2O1 (centres undefined),·,5%,0.8%,-12%
CCN1CCN(CCCNC(=O)c2ccc(NC(=O)C3=C(C)OCCS3)cc2)CC1,·,-1%,-2.1%,-6%
Cc1cc(Cl)c(S(=O)(=O)Nc2ccc(S(=O)(=O)N3CCOCC3)cc2)cc1OCC(N)=O,4,0%,0.2%,0%
COc1ccc(/C=C2\COc3ccccc3C2=O)c(OC)c1,·,-14%,-4.4%,-20%
